HSD17B inhib: HSD17B dehydrogenase inhibition. Q99714. recombinant HSD17B10, NADH fluorescence kinetic; many of its hits are not listed in these tables. Potency, µM (top dose mostly 57.1 µM), without a hit: at the highest dose activity change, negative = inhibition, usual class: inhibitors. 75,000 tested, 7.6% active. AID 893; active = well fitted inhibition curve with a large enough effect; inconclusive = small, poorly fitted or top-dose-only effect; inactive = no such curve, though single readings can be large or run the other way;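 note: the protocol describes HADH2 (HSD17B10) and not the HSD17B4 of the title; nearly all actives have a fitted effect of over 70% in size; most hits overshoot -100% by far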
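Activity followed as NADH fluorescence increase (ex 360, em 450 nm) every 30 seconds for 4 min, using final 90 uM beta-hydroxybutyryl CoA and 1 mM NAD+. Recombinant His-tagged enzyme, 20 nM, pH 9.0 Tris buffer, 15 min compound preincubation.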
* = called active by the depositor; ? = inconclusive; & = joins results of further samples; ! = repeats disagree; [ ] = remark or other dose. % is set by controls: 0 for no effect and ±100 for the full control effect; potency is the fitted concentration of half-maximal effect. These rows are one share of the data; count on the stated rates, not on these rows.

SMILES | HSD17B inhib
CCSc1nc(O)c(C2OC(=O)c3c2ccc(OC)c3OC)c(=O)n1CC (centres undefined) | 4%
Cc1cc(C)n(-c2nc3c(c(=O)[nH]c(=O)n3C)n2CC(O)c2ccccc2)n1 (centres undefined) | 25µM*
C/C(CCC(=O)OC[C@@H]1O[C@H](C#Cc2ccccc2)C=C[C@@H]1Oc1ccc(C)cc1)=N/O[C@@H](C)c1cc(-c2c(C)cc(C)cc2C)no1 | 4%[11.4 µM]
CC1CCCC(NC(=O)Cn2cc3c(n2)CCCCC3)C1C (centres undefined) | 6%
CC(=O)Nc1ccc(S(=O)(=O)N2CCN(CCCOc3cc(C)ccc3C)CC2)cc1 | -5%
O=C(O)C[C@H](NC(=O)CP(=O)(O)O)C(=O)O.[NH-][C@@H]1CCCC[C@@H]1[NH-].[Pt] | -5%[11.4 µM]
CC/C(=N\O)c1ccc(O)c(OC)c1 | -5%
COC(=O)c1[nH]nc2c1C(=O)N(C1CCCCC1)C2=O | ?
CC1CC(C)CN(CCCNC(=O)COc2cc(=O)n(C)c3ccccc23)C1 (centres undefined) | -7%
Cc1cc(C(=O)Nc2cc(C)n(Cc3ccc(Cl)cc3)n2)no1 | -1%
Cn1cnnc1SCC(=O)c1ccco1 | -5%
N#Cc1cccc(-c2cc(NCc3ccccc3)ncn2)c1 | ?
COCCN1C(=O)c2ccccc2C(C(=O)NCC2CCCO2)C1c1c[nH]c2ccccc12 (centres undefined) | 1%
O=S(=O)(c1cc(Cl)ccc1Br)N1CCOCC1 | -6%
COc1ccc(-c2nnn(CC(=O)c3c[nH]c4ccccc34)n2)cc1OC | -6%
CS(=O)(=O)c1ccc(Cl)c(NC(=O)C2CC(=O)N(Cc3ccccc3)C2)c1 (centres undefined) | 4%
CCCn1c(=O)n(C)c(=O)c2c3oc(=O)c(NC(=O)c4ccc(F)cc4)cc3[nH]c21 | -5%
CC(C)CCNC(=O)NC(=O)CSc1nnc(COc2ccccc2Cl)o1 | -5%
Oc1ccc(Br)cc1-c1nc2cnccn2c1NC1CCCC1 | ?
COc1ccc(NC(=O)COc2ccccc2C#N)c(S(=O)(=O)N2CCCCC2)c1 | 3%
COc1ccccc1CNC(=O)C1CCN(S(=O)(=O)c2cccc3cccnc23)CC1 | 5%
CC(C)Cc1nnc(NC(=O)CSc2nc(=O)cc(N)n2-c2ccccc2)s1 | -22%
COc1ccc(N2CC(C(=O)NCCC3=CCCCC3)CC2=O)cc1 (centres undefined) | -9%
Cc1cc(=O)n2nc(N3CCCC3C(=O)NCCCN3CCCCC3)sc2n1 (centres undefined) | -4%
CCN1CCN(C(=O)c2cc3cc4cc(OC)ccc4nc3s2)CC1 | 25µM*
Cc1cc(C(=O)CSc2nnc(-c3ccccc3F)o2)c(C)n1Cc1cccs1 | 2%
COC(=O)[C@@]1(Cc2ccc(OC)cc2)[C@H]2c3cc(C(=O)N4CCCC4)n(Cc4ccsc4Br)c3C[C@H]2CN1C(=O)c1ccccc1 | 26%
O=C(c1cnn2c(C(F)(F)F)cc(-c3ccc4c(c3)OCO4)nc12)N1CCCC1 | 0%
Cc1noc(/C=C/N(C)C)c1S(=O)(=O)NC1CCCCC1 | -2%
Cc1cc(C)cc(C(=O)n2cnnc2N)c1 | 0%
COc1cccc(-c2nc(CS(=O)CC(=O)NC3CC3)c(C)o2)c1 (centres undefined) | -18%
COC(=O)C1=C(CSCc2ccco2)NC(=O)NC1c1cc(C)ccc1C (centres undefined) | -7%
CCN(CCO)c1ccc(-n2c(N)c(C(=O)OC)c3nc4ccccc4nc32)cc1 | -13%
Cc1ccc(C2CC(c3ccco3)n3ncnc3N2)cc1 (centres undefined) | 4%
O=S(=O)(c1ccccc1)c1nc(-c2ccco2)oc1NCCCN1CCOCC1 | 2%
Cc1ccc(-c2cc(C(F)F)n3ncc(C(=O)N4CCN(c5ccccn5)CC4)c3n2)cc1 | ?
COc1ccc(S(=O)(=O)NC(CC(=O)NCC2CCCO2)c2ccco2)cc1 (centres undefined) | 0%
O=C(Cn1cnc2c(nnn2-c2ccccc2)c1=O)N1CCOCC1 | 16%
CCOc1ccc(Cn2nnc(C(=O)Nc3ccc(OC)cc3OC)c2N)cc1 | -21%
CC(=O)Oc1cc(OC(C)=O)c2c(c1)OC(c1ccc(OC(C)=O)c(OC(C)=O)c1)C(OC(C)=O)C2 (centres undefined) | -9%&-5%
CCCn1c(-c2ccc(F)cc2)nc2c(NCC3CCCN3CC)nc(C)nc21 (centres undefined) | 32µM*
CCOC(=O)c1[nH]c(C)c(C(=O)NCCCN2CCOCC2)c1C | -1%
CCOC(=O)c1nnn(CC(=O)Nc2cccc(Cl)c2C)c1C(=O)OCC | -2%
Cc1ccc(S(=O)(=O)NCCCN2CCOCC2)cc1C | 4%
CSc1ccccc1NC(=O)CCn1c(=O)sc2ccccc21 | 8%
CC(=O)OC1C[C@@]2(C)C(c3ccoc3)OC(=O)C3O[C@@]32[C@]2(C)C(OC(C)=O)CC3C(C)(C)C(OC(C)=O)CC(OC(C)=O)[C@@]3(C)C12 (some centres undefined) | -1%
CCOc1ccccc1CN1C(=O)c2ccccc2C1C(=O)NCC1CCCO1 (centres undefined) | 4%
COc1ncc2nc(CCc3ccccc3)c(=O)n(CCC#N)c2n1 | -5%
Cc1ncoc1C(=O)Nc1nccs1 | -1%
CC(=O)N1CC=CC1(CC(C)C)C(=O)NCc1ccccn1 (centres undefined) | -1%

New compounds follow:
SMILES | HSD17B inhib
CC(=O)N1CCC2(CC1)CN(C(=O)Nc1cccc(C#N)c1)C2 | -1%
CCCNC(=O)NC(=O)CSc1nc2ccccc2n1CC(C)C | -5%
CC1(C)NC(C)(C)C(O)(C(N)=O)C1=O (centres undefined) | -6%
Clc1ccc(-n2nnnc2Sc2ncnc3sccc23)cc1 | -23%
COc1ccc(CCNC(=O)c2ccc(CN3CCOCC3)cc2)cc1 | 9%
Nc1ncnc2c1nc(Br)n2C1CC(O)C(CO)O1 (centres undefined) | 5%
CC1Cc2ccccc2N1C(=O)CSc1nnc2c(n1)[nH]c1ccccc12 (centres undefined) | 6%
CCN(CCNC(=O)Cn1c(=O)sc2ccccc21)c1ccccc1 | 5%
COc1ccc(NC(=O)c2c(C)oc3c2CCCC3)cc1 | 6%
Cc1nonc1NC(=O)c1ccccc1Br | 11%
COc1cc2cc(CN(Cc3cccnc3)C(=O)NCc3ccccc3)c(=O)[nH]c2cc1OC | 25µM*
O=C(c1ccco1)N1CCN(S(=O)(=O)Cc2ccc(Cl)cc2)CC1 | -1%
N#CCCn1nnc2ccccc21 | 5%
CC(=O)NC1C(=O)N=C(SCc2ccccc2)NC1=O (centres undefined) | -3%
CCn1cc(C(=O)Nc2ccc(C(=O)N3CCCC3)cc2)c(=O)c2ccc(C)nc21 | 10%
COc1ccccc1-c1nc(C(F)(F)F)c(OC)o1 | ?
O=C(Nc1nccs1)c1ccc(NC(=O)c2ccco2)cc1 | ?
CCOc1ccc(NC(=O)C(C)O)c(NS(=O)(=O)c2ccc(CCNC(C)=O)cc2)c1 (centres undefined) | 3%
Brc1ccc([C@H]2CN3CCSC3=N2)cc1 | -6%
Cc1ccc(N2C(=O)C(Cl)=C(Nc3c(C)n(C)n(-c4ccccc4)c3=O)C2=O)cc1 | -11%

Quoted from the listing:
Value for COc1cccc(-c2nc(CS(=O)CC(=O)NC3CC3)c(C)o2)c1 (centres undefined) under HSD17B inhib: -18%
Value for Cn1cnnc1SCC(=O)c1ccco1 under HSD17B inhib: -5%

Continuation:
SMILES | HSD17B inhib
Brc1cc(Br)c2ncnc(N3CCCCC3)c2c1 | -10%
Cc1cc(OCc2nnc(SCC(=O)OC3CCCCC3)o2)ccc1Cl | 5%
O=C(NC1C2CC3CC(C2)CC1C3)C1CC1 (centres undefined) | ?
O=C(Nc1cccc2nsnc12)c1cccs1 | 32µM*!
CC1Cn2c(nnc2-c2cccc(N)c2)S1 (centres undefined) | 32µM*
CCC1Oc2ccc(C)cc2N(CC(=O)NCc2cccc(OC)c2)C1=O (centres undefined) | -10%
CCOC(=O)C(CC)n1cnc2sc3c(c2c1=O)CCC3 (centres undefined) | ?
Cc1onc(-c2ccccc2)c1C(=O)OCC(=O)Nc1ccc2c(c1)OCO2 | 7%
O=C(COc1ccc(Cl)cc1Cl)NCCCN1CCOCC1 | 10%
CCOC(=O)C1CCN(S(=O)(=O)c2cn(C)c(=O)n(C)c2=O)CC1 | -6%

Arranged by length of the SMILES (ascending): part of the list above.
SMILES | HSD17B inhib
CC1Cn2c(nnc2-c2cccc(N)c2)S1 (centres undefined) | 32µM*
O=C(NC1C2CC3CC(C2)CC1C3)C1CC1 (centres undefined) | ?
Brc1cc(Br)c2ncnc(N3CCCCC3)c2c1 | -10%
O=C(COc1ccc(Cl)cc1Cl)NCCCN1CCOCC1 | 10%
CCOC(=O)C(CC)n1cnc2sc3c(c2c1=O)CCC3 (centres undefined) | ?
Cc1cc(OCc2nnc(SCC(=O)OC3CCCCC3)o2)ccc1Cl | 5%
CCOC(=O)C1CCN(S(=O)(=O)c2cn(C)c(=O)n(C)c2=O)CC1 | -6%

(cont.)
SMILES | HSD17B inhib
COc1ccc(OC(=O)CCCN2C(=O)c3ccccc3C2=O)cc1 | ?
CCOn1c(=O)c(=O)n(OCc2ccccc2)c2ccccc21 | -6%
COC(=O)c1ccc(CSc2nc(C)nc3sc(C)c(C)c23)o1 | -5%
CC1=C(C(=O)OC(C)C)C(c2cccs2)N2C(=O)CCSC2=N1 (centres undefined) | -7%
Cc1ccc(C(c2sc3ncnn3c2O)N2CCC(C)CC2)cc1 (centres undefined) | 1%
CCC(=O)Nc1nc2c(OC)ccc(C)c2s1 | 3%
C=CCn1c(SCC(=O)NCC2CCCO2)nnc1C1CCCCC1 (centres undefined) | 1%
O=C(COc1nncc2ccccc12)NCCC1=CCCCC1 | 7%
CC(C)=CCC/C(C)=C/CO/N=C1/C[C@@H](O)[C@@H](O)[C@@H]2[C@@H]3C(=O)N(C4CCCCC4)C(=O)[C@H]3CC[C@@H]12 | -6%[11.4 µM]
Cc1ccc(OCC(=O)Nc2ccc(N3CCCC3)cc2)cc1C | -9%
CCCOc1cccc(C(=O)Nc2cccc(NC(=O)c3ccco3)c2)c1 | -1%
Cc1cc(C(=O)CN2C(=O)NC3(CCCCC3)C2=O)c(C)n1Cc1ccc2c(c1)OCO2 | 2%
Cc1ccnc(Nc2nc(-c3c(C)nc4sccn34)cs2)c1 | 8%
C=CCn1c(SCC(=O)Nc2c(C)cccc2C)nnc1-c1cnccn1 | 5%
CCCNC(=O)COC(=O)c1ccc(S(=O)(=O)N2CCCCCC2)cc1 | 15%
C[C@@H](C(=O)NCc1ccc(S(C)(=O)=O)cc1)[C@@H]1C[C@@]1(C)[C@@H](NC(=O)OCc1ccccc1)c1ccccc1 | 3%
Cc1cc(C)n(C(=O)CNC(=O)c2ccco2)n1 | 11%
Cc1nn(-c2ccc(F)cc2)c2c1cc(C#N)c1nc3ccccc3n12 | 0.63µM*
O=C1COc2ccc(C(=O)c3ccccc3)cc2CN1 | -5%
Cc1sc2nc(CN(Cc3cccs3)C(=O)C3CC3)[nH]c(=O)c2c1C | -4%
CC(C)C(C)/C=C/C(C)C1CCC2C3=CCC4CC(=O)CC[C@@]4(C)C3CC[C@]21C (some centres undefined) | 7%
CCOC(=O)c1c(C)c(C(=O)NCc2ccccn2)c(C)n1CC | -6%
CCCn1cnc2c(c1=O)c1nc3ccccc3nc1n2CCc1ccccc1 | 3.2µM*
Cc1ccc(NCc2nnc(SCC(=O)OC3CCCCC3)o2)c(C)c1 | -15%
Cc1c(C(=O)O)sc2ncn(C)c(=O)c12 | -9%
COC(=O)COc1ccc(S(=O)(=O)Nc2ccc(NC(C)=O)cc2)cc1C | 5%
CC(C)CN1CN(S(=O)(=O)c2cccs2)c2nc3ccccc3nc21 | ?
COc1cccc(Nc2ncnc3c2cnn3C)c1 | -11%
NC(Cn1ccc(=O)c(O)c1)C(=O)O (centres undefined) | 2%
CCCn1c(N)c(N(C)C)c(=O)n(CC(=O)Nc2ccc(OC(F)(F)F)cc2)c1=O | 8%
CC(C)c1[nH]nc2c1C1(CCN(Cc3ccccc3)CC1)C(C#N)=C(N)O2 | ?
CC1(C)CC(c2csc(N)n2)CCO1 (centres undefined) | 13%
CN(C)Cc1ccccc1 | 1%
Cc1noc(/C=C/N(C)C)c1S(=O)(=O)N1CCCC(C(=O)NCc2cccs2)C1 (centres undefined) | -8%
CCc1nnc(NS(=O)(=O)c2ccc(N3C(=O)C4CC=C(Cl)CC4C3=O)cc2)s1 (centres undefined) | -9%
O=C(c1ccc(F)cc1)N1C2CCC1CC(O)(c1ccccc1F)C2 (centres undefined) | 14%
O=C(Nc1cccnc1)c1ccc(NC(=O)c2ccco2)cc1 | -3%
COc1ccc(-c2nc(CS(=O)CC(=O)NCc3ccco3)c(C)o2)cc1OC (centres undefined) | 20µM*
CC(=O)O[C@H]1CC[C@]2(C)C(=CC[C@H]3[C@H]4C[C@H]5O[C@]6(CC[C@H](C)CN6)[C@H](C)[C@@H]5[C@]4(C)CC[C@@H]32)C1 | 4%[11.4 µM]
COc1ccc(N2CCN(C(c3ccccc3OC)c3nnnn3C3CCCC3)CC2)cc1 (centres undefined) | -20%

Screening data: PubChem, National Center for Advancing Translational Sciences (NCATS)
